# Prx2 Sm inh: Schistosoma mansoni Prx2 inhibition. actives 0.07% (n = 65,000). Potency, µM. S. mansoni Prx2 activity coupled to TGR/GSH (TGR is thioredoxin glutathione reductase), NADPH fluorescence loss, qHTS; some inactives read as strong as hits; active means full or partial inhibition curve with a strong effect at the top dose; inconclusive means weaker partial or single-point curve; inactive means no accepted curve; note: series up to 57 µM; many of its hits are not listed in these tables
#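 Purified S. mansoni TGR and Prx2 in pH 7.4 phosphate buffer with EDTA and Tween-20 were preincubated with compounds for 15 min. Further NADPH/GSH was added, then a 2.5 mM H2O2 aliquot initiated turnover, followed kinetically by NADPH fluorescence.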
# Anthrax LT inh: blocks cellular internalization of anthrax lethal toxin. Cells, anthrax lethal toxin internalization, FRET ratio (460/530). Potency, µM (titrated, usually from 40 µM), for the others: at the top dose activity change, negative = inhibition, hits mostly inhibitors. actives 0.67% (n = 70,000); active = well fitted falling ratio curve with the 530 nm signal flat; inconclusive = other ratio curves, or a change in one channel alone; inactive = flat curves in the ratio and both channels; the % refers to the ratio; note: % is set by controls: 0 for no effect and ±100 for the full control effect; nearly all actives have a fitted effect of over 50% in size; tested in ME-180 cells; beta-lactamase reporter
# * marks the source's active call; other numbers are inactive results; ? = inconclusive; · = not tested or not shown; [ ] = dose if it differs, or a comment. Potency is the fitted concentration of half-maximal effect.
SMILES,Prx2 Sm inh,Anthrax LT inh
COc1cc(NC(=O)c2c(F)cccc2F)nc(OC)n1,>57,?
O=C(Nc1cccc(C(=O)N2CCOCC2)c1)c1cccnc1,>57,14.3%
Clc1ccc(OCc2cn3cccnc3n2)c2ncccc12,>57,8.2%
CCCCCCC#CC1C=CC(OC(=O)OCC)C(COC(=O)OCC)O1 (centres undefined),·,12.3%[8 µM]
O=C(CCc1ccc(S(=O)(=O)N2CCOCC2)cc1)NCCc1ccccn1,>57,-5.0%
CC(=O)N1CCN(CC(=O)Nc2c(Cl)cc(Cl)cc2Cl)CC1,>57,-1.4%
COc1ccc(Br)cc1C(=O)NCc1cccnc1,>57,-7.2%
CSc1ccccc1NC(=O)c1onc(C)c1Cl,?,-22.5%
COc1ccccc1C(c1nnnn1C(C)(C)C)N1CCN(C(=O)c2ccco2)CC1 (centres undefined),>57,-0.7%
O=C(CN1CCN(c2ccccc2)CC1)N1CCN(c2ccccc2)CC1,>57,?
CCC(CC)C(=O)Nc1cccc(C(=O)NCc2ccco2)c1,>57,-8.2%
CCNc1ncc2nc(-c3cccs3)c(=O)n(Cc3ccc(F)cc3)c2n1,>57,?
Cc1ccccc1-c1nc(CS(=O)CC(=O)NCCCN(C)c2ccccc2)c(C)o1 (centres undefined),>57,7.5%
COc1ccccc1-c1oc2ccccc2c(=O)c1OC,?,?
CC(=O)Nc1c(O)nc(SCC(=O)Nc2nnc(CC(C)C)s2)[nH]c1=O,>57,7.3%
CCC1CCCCN1CCn1c(=S)[nH]c2cc(OC)c(OC)cc2c1=O (centres undefined),>57,?
Cc1ccc2c(c1)N(CC(=O)NC1CCC(C)CC1)C(=O)CO2 (centres undefined),>57,-12.4%
COC(=O)c1cc(NC(=O)CN2CCOCC2)cc(C(=O)OC)c1,>57,4.4%
COCCN(C(=O)C(C)C)c1nnc(-c2cccc(C)c2)s1,>57,-7.6%
CCN(CC)c1ncccc1C(=O)NCc1cccs1,>57,-1.8%
O=C(NCc1ccccn1)c1cc(S(=O)(=O)N2CCN(c3ccccc3)CC2)ccc1Cl,>57,-7.4%
Cc1ccccc1-c1nc(CN2CCC(C(=O)N3CCN(c4ccccn4)CC3)CC2)c(C)o1,>57,-19.5%
COc1ccccc1NC(=O)C1CC(=O)OC1c1ccccc1 (centres undefined),>57,-8.8%
COC(=O)N1CCC2(CCCN(C)C2)CC1,>57,-1.4%
O=C(O)CSc1nnc(-c2cccs2)n1-c1ccc(Cl)cc1,>57,-0.6%
SMILES,Prx2 Sm inh,Anthrax LT inh
CC1(C)CC(=O)c2cc(OCC(=O)N3CCN(c4ccccc4F)CC3)ccc2O1,>57,-7.5%
c1ccc2c(c1)ccc1ccccc12,·,-15.7%
COc1ccc(Oc2ncc3nc(-c4ccccc4)c(=O)n(C4CC4)c3n2)cc1,>57,-6.0%
Cc1cccn2c(NCC3CCCO3)c(C(C)C)nc12 (centres undefined),>57,-3.9%
CCCNC(=O)Cn1cnc2sc(C(=O)N3CCN(CCC)CC3)c(C)c2c1=O,>57,4.5%
Cc1ccc(N2CC(C(=O)NCC3CCCO3)CC2=O)cc1Cl (centres undefined),>57,-13.5%
Cc1cc(C)n2c(SCC(=O)Nc3ncc(C(F)(F)F)cc3Cl)nnc2n1,>57,0.2%
CC(C)C(OC(=O)c1ccco1)C(=O)NCc1ccccc1 (centres undefined),>57,?
CC(C)N(C(=O)CSc1nnnn1C1CCCC1)C(C)C,>57,-9.0%
C=C(C)Cn1c(CNC(C)=O)nc2ccccc21,>57,3.3%
Cc1ccccc1C(=N)c1ccccc1Cc1cccc2ccccc12,>57,?
CC1(CCC#N)N=C(SCCC#N)N(c2ccccc2)C1=O (centres undefined),>57,10.8%
O=C(c1ccc(S(=O)(=O)N2CCCCC2)cc1)c1nnc(-c2ccc(Cl)cc2)o1,>57,-10.5%
OCc1ccncc1.OCc1ccncc1.[Cl][Pt]([Cl])([Cl])[Cl],?,?
Cc1cc(=O)n(CCO)c(O)c1C#N,>57,-3.3%
COC(=O)c1ccc(C(NC(=O)OCc2ccccc2)/C(I)=C/[C@@H](C)C(=O)NCc2ccc(C)o2)cc1 (some centres undefined),·,-9.8%
Cc1c(C(=O)N2CCN(c3ccccc3F)CC2)sc2nc(-c3ccccc3)cn12,>57,-8.3%
CCOc1ccccc1N1C(=O)c2cccnc2C1=O,>57,-3.9%
C[C@@]1(C(NC(=O)c2ccccc2)c2ccc(-c3ccccc3)cc2)C[C@H]1C1CCCCC1 (some centres undefined),>57,-29.5%
COc1cc(NC(=O)C2CCCCC2)c(OC)cc1NC(=O)CCC(=O)NCc1ccco1,>57,-1.0%
Cc1ccc(NC(=O)CCSc2nnnn2-c2ccc3c(c2)OCO3)cc1C,>57,-16.8%
COc1cc(OC)nc(NC(=O)CSc2nc3ccccc3o2)n1,>57,11.1%
O=C(CCn1nnc2ccccc2c1=O)NCC1CCC(C(=O)O)CC1 (centres undefined),>57,5.1%
CSc1nc(NCc2ccco2)c2c3c(sc2n1)CN(C)CC3,>57,?
O=C(CSc1nnc2n(C3CCCC3)c(=O)c3ccccc3n12)N1CCCCCC1,>57,13.7%

# Entries of single compounds from above. Screens in order: Prx2 Sm inh	Anthrax LT inh
# COc1ccc(Oc2ncc3nc(-c4ccccc4)c(=O)n(C4CC4)c3n2)cc1 is listed with >57	-6.0%
# C=C(C)Cn1c(CNC(C)=O)nc2ccccc21 is listed with >57	3.3%
# COc1cc(NC(=O)C2CCCCC2)c(OC)cc1NC(=O)CCC(=O)NCc1ccco1 is listed with >57	-1.0%
# O=C(CCn1nnc2ccccc2c1=O)NCC1CCC(C(=O)O)CC1 (centres undefined) is listed with >57	5.1%

# Following part.
SMILES,Prx2 Sm inh,Anthrax LT inh
C=CCn1c(=O)c2c(nc3n2CCN3c2cccc(Cl)c2C)n(C)c1=O,>57,-11.3%
CSCC[C@@H]1NC(=O)C/C=C\[C@@H](C)COC(=O)[C@@H](CCSC)NC(=O)C/C=C\[C@@H](C)COC1=O,·,-12.2%[8 µM]
c1csc(CN2CCCC3(CCNCC3)C2)n1,>57,?
c1ccc2cc(-c3cc(-c4cc(-c5ccc6ccccc6c5)on4)no3)ccc2c1,>57,2.8%[8 µM]
COc1cccc(C2=Nn3c(nnc3-c3ccccc3O)SC2)c1,>57,-20.5%
Cc1nc(SCC(=O)N2CCOCC2)c2ccsc2n1,>57,-4.4%
CCC/C(=N\O)c1c[nH]c2ccccc12,·,?
O=S(=O)(c1ccc2ccccc2c1)n1cnc2ccccc21,>57,?
COCCCn1c(SCC(=O)Nc2nnc(C)s2)nnc1-c1ccoc1C,>57,4.4%
CN1CCN(C(=O)c2cc3nc(-c4ccc(F)cc4)cc(C(F)(F)F)n3n2)CC1,?,?
COc1ccc(-c2c3c(nc4sc(C(=O)Nc5cc(C)on5)c(N)c24)CCC3)cc1,>57,-7.9%
COc1ccccc1CNC(=O)C(C)NS(=O)(=O)c1ccc(C)cc1 (centres undefined),>57,1.3%
CN(Cc1cc(C(C)(C)C)cc(Br)c1O)Cc1cc(C(C)(C)C)cc(Br)c1O,>57,?
COc1cccc(C(O)c2cnc(C(C)C)n2C)c1OC (centres undefined),>57,?
CC(=O)c1n[nH]nc1NC(=O)c1ccccc1,>57,11.2%
O=C1CCc2cc(S(=O)(=O)N3CCC(C(=O)NCc4ccccc4Cl)CC3)ccc2N1,>57,-6.6%
O=C(NC1CCCCCCC1)c1ccc2c(c1)N(Cc1ccc(F)cc1)C(=O)CS2=O (centres undefined),>57,28.5%
CCc1ccc(S(=O)(=O)NCc2csc(-c3ccccc3)n2)s1,>57,?
O=C(Cc1ccc(-n2cccc2)cc1)NCc1cccs1,>57,-17.5%
COc1ccc(CCNC(=O)CCCn2c(=O)[nH]c3cc(OC)c(OC)cc3c2=O)cc1OC,>57,5.7%
Cc1cc(C)n(-c2nc(SCC(=O)N3CCCC3)c3c4c(sc3n2)CCCC4)n1,>57,1.3%
Clc1cccc(C=NC=Nc2cccc(Cl)c2)c1,>57,?
COCCNc1ncnc2ccc(-c3ccccc3C)cc12,>57,-8.8%
COc1ccc(N2CC(C(=O)NCc3cccnc3)CC2=O)cc1 (centres undefined),>57,-2.7%
CCOc1ccccc1C(=O)n1nc2nc(C)cc(C)c2c1N,>57,-9.0%

# Among those listed so far, these have two or more sulfur atoms.
SMILES,Prx2 Sm inh,Anthrax LT inh
CC(=O)Nc1c(O)nc(SCC(=O)Nc2nnc(CC(C)C)s2)[nH]c1=O,>57,7.3%
O=C(O)CSc1nnc(-c2cccs2)n1-c1ccc(Cl)cc1,>57,-0.6%
CSc1nc(NCc2ccco2)c2c3c(sc2n1)CN(C)CC3,>57,?
CSCC[C@@H]1NC(=O)C/C=C\[C@@H](C)COC(=O)[C@@H](CCSC)NC(=O)C/C=C\[C@@H](C)COC1=O,·,-12.2%[8 µM]
Cc1nc(SCC(=O)N2CCOCC2)c2ccsc2n1,>57,-4.4%
COCCCn1c(SCC(=O)Nc2nnc(C)s2)nnc1-c1ccoc1C,>57,4.4%
CCc1ccc(S(=O)(=O)NCc2csc(-c3ccccc3)n2)s1,>57,?
Cc1cc(C)n(-c2nc(SCC(=O)N3CCCC3)c3c4c(sc3n2)CCCC4)n1,>57,1.3%

# (next part)
SMILES,Prx2 Sm inh,Anthrax LT inh
COC(=O)c1ccc(C(NC(=O)OCc2ccccc2)/C(C)=C/[C@@H](C)C(=O)N[C@@H](CO)Cc2ccccc2)cc1 (some centres undefined),·,-16.0%
Cc1ccc2cc(C#N)c(N3CCCC3)nc2c1C,>57,-2.4%
CN(C)c1ccc(-c2ccc3ncnc(N(C)C)c3c2)cc1,>57,-11.6%
O=C(c1ccc(Cn2cc(Br)cn2)o1)n1cccn1,>57,-3.6%
CCOC(=O)c1sc(NCCNc2nc(C)c(C(=O)OCC)s2)nc1C,>57,-3.2%
OC(CNCCc1ccccc1)c1ccccc1 (centres undefined),·,-26.1%
C[C@@H]1C[C@H](C)CN(S(=O)(=O)c2cc(Cl)c(Oc3ccc([N+](=O)[O-])cc3Cl)c(Cl)c2)C1,>57,?
O=C(O)Cc1ccc(O)c(O)c1,>57,-6.4%
CC(C)(C)NC(=O)CN(C(=O)CS(=O)CC(=O)Nc1ccc(F)cc1)c1ccccc1 (centres undefined),>57,5.5%
CCC(C)COC(=O)C(C#N)c1nc2ccccc2nc1N1CCCCC1 (centres undefined),>57,?
COc1ccc(OC)c(NC(=O)CN(c2ccc(C(C)C)cc2)S(=O)(=O)c2c(C)noc2C)c1,>57,?
O=c1c2ccccc2nc(-c2ccccc2)n1CCCn1ccnc1,>57,·
CCCCn1cnc2c(cnn2-c2ccc(F)cc2)c1=O,>57,-11.2%
Oc1ccc([C@@H]2CNCc3sccc32)cc1O,>57,0.0%
CCc1n[nH]c2c1/C(=N/O)CCC2,>57,-6.1%
CCOC(=O)N1CCC(NC(=O)C(Cc2ccccc2)NC(=O)C2CCCCC2)CC1 (centres undefined),>57,3.5%
O=C1CC(c2ccco2)Sc2nc3ccccc3n21 (centres undefined),·,0.9%
CN1C[C@@H](C(=O)N[C@]2(C)O[C@]3(O)[C@H]4CCCN4C(=O)[C@H](Cc4ccccc4)N3C2=O)C[C@H]2c3cccc4[nH]cc(c34)C[C@@H]21,>57,12.9%
O=C(CSc1nnc(COc2ccc(Cl)cc2)o1)OC1CCCCC1,>57,0.4%
Cc1cc(NCCCn2ccnc2)n2nc(-c3ccc(F)cc3)cc2n1,>57,0.5%
CCNc1nc(-c2ccc(Cl)cc2)cs1,>57,-18.4%
CCCn1nnc(NC(=O)c2ccc(-c3ccccc3)cc2)n1,>57,-0.8%
CCOC(=O)c1ccc(CSc2nnc(N)s2)cc1,>57,7.6%
Cc1ccc2c(CC(=O)OCc3csc(C)n3)coc2c1,>57,3.3%
CCC1CCCCN1CCCNC(=O)Cn1nc(-c2ccccc2)ccc1=O (centres undefined),>57,2.2%
SMILES,Prx2 Sm inh,Anthrax LT inh
Cc1sc2nc(CN3CCOCC3)nc(Oc3ccc(NC(=O)c4ccco4)cc3)c2c1C,>57,?
COc1ccc(-c2noc(C)c2-c2ccc3ccccc3n2)c(O)c1,>57,?
CC1CCN(C(=O)CSc2nc(N)cc(N)n2)CC1,>57,-13.3%
COc1ccc2c(c1)C(=O)CC(c1ccccc1F)O2 (centres undefined),·,?
Cc1ccc2[nH]c3c(c2c1)CCc1cn[nH]c1-3,>57,?
CC(=O)OCc1cc(=O)n(C)c(=O)n1C,>57,-6.1%
CCSc1nnc(Cn2c(=O)sc3ccccc32)n1C,>57,-5.8%
CNC(=O)CN(c1cc(C)ccc1OC)S(=O)(=O)c1ccc(C)cc1,·,-11.0%
CCCCNC(=O)Cn1c(=O)n(C)c2ccccc21,>57,-11.6%
O=C(O)C1C2C=CC(C2)C1C(=O)N1CCOCC1 (centres undefined),>57,6.2%
Oc1ccc(Cn2cc[nH]c2=S)cc1,>57,-19.9%
Cc1cc2cc3c(C)cc(=O)oc3c(C)c2o1,>57,1.9%[3.58 µM]
CCC1CCCCN1Cc1nc2c(c(=O)n(C)c(=O)n2C)n1CCCc1ccccc1 (centres undefined),>57,-3.0%
COCCN1Cc2cccc(C(=O)Nc3ccccc3OC)c2C1=O,>57,-7.6%
c1csc(-c2nn[nH]n2)c1,>57,-8.0%
CCc1cc2cc3c(cc2nc1SCC(=O)N1CCN(C(=O)c2ccco2)CC1)OCO3,>57,-9.3%
COC(=O)c1nnn(-c2nonc2N)c1CSc1ccc(Cl)cc1,>57,-11.8%
O=C(NCc1ccco1)c1nnc(Cc2ccc(F)cc2)o1,>57,7.9%

# Compound activity (PubChem BioAssay)

# These rows are one share of the data; the hit share may differ from the screen's.
